TRPML1 blocker: qHTS for Inhibitors of the Human Mucolipin Transient Receptor Potential 1 (TRPML1); activity change, negative = inhibition, % (concentration not given with the values); TRPML1-inducible cells, Ca2+ dye fluorescence, FDSS; hits give low values; inhibition of EC80 agonist-evoked calcium signal; hit rate 0.02% among 390,000; in the data active means activity change below about -50%; inconclusive means about -30% to -50%; inactive means above about -30%;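 note: stimulus is agonist 54-4 at its EC80 concentration; % is set by controls: 0 for no effect and ±100 for the full control effect; compound concentration not given in the record; the text of the record puts the active cut at -80%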
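Calcium fluorescence in TRPML1-DL cells induced overnight with Tet: a 110 s read after compound pin addition, then a 110 s antagonist read after challenge with 54-4 at 4 uM final (EC80).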
Six1-Eya2 inh: qHTS Assay for Inhibitors of the Six1/Eya2 Interaction | Homeobox protein SIX1 (Homo sapiens) + Protein phosphatase EYA2 (Homo sapiens), … | AlphaScreen GST-Six1/His-Eya2 binding, biochemical; hits give low values; control for the full effect not named in the record | activity change, % (concentration not given with the values) | hit rate 0.56% among 360,000; in the data active = activity change below about -65%; inconclusive = about -30% to -65%; inactive = above about -30%; note: % is set by controls: 0 for no effect and ±100 for the full control effect
Target sequence (O00167 whole entry, looked up): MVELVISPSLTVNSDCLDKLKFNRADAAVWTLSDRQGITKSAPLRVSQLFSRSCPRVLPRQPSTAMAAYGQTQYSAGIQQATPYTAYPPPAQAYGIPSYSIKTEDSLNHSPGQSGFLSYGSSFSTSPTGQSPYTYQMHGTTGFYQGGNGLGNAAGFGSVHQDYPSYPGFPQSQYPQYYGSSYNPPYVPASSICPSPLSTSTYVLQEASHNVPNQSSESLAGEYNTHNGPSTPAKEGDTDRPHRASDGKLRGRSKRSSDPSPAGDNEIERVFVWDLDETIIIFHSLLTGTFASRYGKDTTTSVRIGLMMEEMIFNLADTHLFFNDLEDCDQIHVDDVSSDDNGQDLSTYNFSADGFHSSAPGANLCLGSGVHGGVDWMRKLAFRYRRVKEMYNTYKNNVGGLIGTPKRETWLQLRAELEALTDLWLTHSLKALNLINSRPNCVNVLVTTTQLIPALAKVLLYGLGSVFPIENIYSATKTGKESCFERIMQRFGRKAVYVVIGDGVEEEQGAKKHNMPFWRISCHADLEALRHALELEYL
Target sequence (Q15475 whole entry, looked up): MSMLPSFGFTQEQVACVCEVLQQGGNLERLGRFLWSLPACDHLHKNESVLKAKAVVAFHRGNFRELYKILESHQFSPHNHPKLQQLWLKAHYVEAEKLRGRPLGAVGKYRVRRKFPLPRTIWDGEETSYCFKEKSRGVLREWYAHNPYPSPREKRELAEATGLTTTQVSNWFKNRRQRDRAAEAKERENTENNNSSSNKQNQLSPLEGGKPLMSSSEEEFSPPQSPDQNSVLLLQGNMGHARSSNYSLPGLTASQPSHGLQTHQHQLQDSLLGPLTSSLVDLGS
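Six1/Eya2 binding was read as AlphaScreen signal after compounds were pinned into GST-Six1 plus His-tagged Eya2 (5X stock 250/500 nM) in pH 8.0 Tris/NaCl/TCEP buffer, beads added, then incubated 1 h, 37 C, dark.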
PINK1 modulator: A Quantitative High throughput Screen to Identify Chemical Modulators of PINK1 Expression. PINK1 immunofluorescence, high-content cytometry, 24 h. Potency, µM (top dose mostly 76.6 µM), for inactives: at the highest dose activation (PINK1 increase), usual class: activators. hit rate 0.2% among 410,000. AID 624263, 2012; active = well fitted activation curve with a large enough effect; inconclusive = small, poorly fitted or top-dose-only effect; inactive = flat fitted curve, though single readings scatter; cell line not stated here;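 note: potency is the fitted concentration of half-maximal effect; % of control where 0% means no effect; nearly all actives have a fitted effect of over 65% in size; a mitochondrial uncoupler was the plate control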
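Compound titrations (5 concentrations, 24 h) on a stable cell line; DMSO and CCCP controls. Endpoint: fixed-cell PINK1 immunofluorescence with mitochondrial, cell and nuclear markers, scanned by microplate cytometer.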
CtBP-E1A blk: qHTS Assay for Inhibitors of the CtBP/E1A Interaction | AID 651724, 2012 | CtBP / adenovirus E1A interaction (AlphaScreen) | hit rate 0.49% among 340,000 | activity change, % (no concentration beside the values) | AlphaScreen GST-E1A/His-CtBP binding, 1536-well; hits give low values; control for the full effect not named in the record; in the data active means activity change below about -65%; inconclusive means about -30% to -65%; inactive means above about -30%; note: % is set by controls: 0 for no effect and ±100 for the full control effect; compound concentration not given in the record
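AlphaScreen with 125 nM GST-E1A and 125 nM His-CtBP (5X stocks) in Tris pH 8.0, 300 mM NaCl, BSA, Tween 20, TCEP. Compounds preincubated 2 h at 37 deg C, then glutathione donor/nickel acceptor beads added for 1 h at 37 deg C in dark.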
TRPML1 agonist: qHTS for Agonists of the Human Mucolipin Transient Receptor Potential 1 (TRPML1) | Mucolipin-1 (Homo sapiens), Q9GZU1 | TRPML1-expressing cells, Ca2+ dye fluorescence, FDSS; host cell line not named in the record; reference of the full effect not given here | activation, % (concentration not given with the values) | hit rate 0.12% among 410,000; in the data active = activation above about 50%; inconclusive = about 30% to 50%; inactive = below about 30%; note: 0% is about no effect; the text of the record puts the active cut at 80%
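Calcium fluorescence on an FDSS kinetic reader gave the read-out. Tet-induced TRPML1-DL cells were plated overnight, dye-loaded (Ca8 with quencher, 45-90 min, room temperature, dark), then read 110 s after compound addition, and again 110 s after 4uM final 54-4 (EC80).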
D2 agonist: Beta-Arrestin HTS for Positive Allosteric Modulators of the Human D2 Dopamine Receptor: Agonists | DiscoveRx PathHunter D2 beta-arrestin, luminescence, 90 min; 100% = 57 uM dopamine signal | activation, % (test concentration not listed) | hit rate 0.084% among 360,000; in the data active = activation above about 40%; inconclusive = about 15% to 40%; inactive = below about 15%; note: compound concentration not given in the record; the text of the record calls up to 30% inactive
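DiscoveRx PathHunter D2 beta-arrestin cells (2,100/well) attached overnight, then compound-stimulated 90 min at 37 C in HBSS/10 mM HEPES/0.1% Tween-20 buffer; beta-galactosidase complementation read by luminescence after 1 h at ambient temperature. Dopamine 57 uM final (EC100) as control.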
* hit, by the source's call; ? = inconclusive; · = not tested or not shown; [ ] = dose if it differs, or a comment.

Screens in order – TRPML1 blocker | Six1-Eya2 inh | PINK1 modulator | CtBP-E1A blk | TRPML1 agonist | D2 agonist
- CC(O)CNCc1ccc(-c2ccccc2)cc1 (stereo not drawn)
  -2.5 | 1.3 | -1.1%[38.3 µM] | -15.8 | 1.2 | -2.2
- CCc1cc2c(=O)[nH]c(Cc3ccccc3)nc2s1
  13.7 | 8.8 | -0.1% | 2.9 | 2.2 | 2.4
- C/C=N\NC(=O)CNC(=O)CNC(=O)c1ccccc1
  38.5 | 5.8 | 2.2% | · | 0.6 | 7.7
- CC(C)(C)c1ccc(/C=N/NC(=S)NC2CCCCC2)cc1
  31.8 | -16.8 | ? | -9.9 | 1.8 | -2.5
- Cc1ccc(NC(=O)c2n[nH]c(=O)c3ccccc23)cc1S(=O)(=O)N1CCOCC1
  27.4 | ? | 1.3% | -28.5 | -0.3 | 2.6
- O=C1CC(c2ccccc2)=NN1c1ccc([N+](=O)[O-])cc1
  4.6 | -15.8 | ? | -4.8 | -0.1 | -1.4
- COCCN(Cc1nc2ccccc2c(=O)[nH]1)C(=O)COc1ccccc1-c1ccccc1
  11.5 | -2.6 | 2.7% | -2.9 | 0.4 | -1.5
- COc1ccc(N2C(S)=C(C#N)C(=O)NC2c2ccco2)cc1 (stereo not drawn)
  36.2 | 0.4 | 2.6% | -3.9 | 0.9 | 3.1
- O=C(CN(Cc1ccccc1)S(=O)(=O)c1ccccc1)N/N=C/c1ccc2c(c1)OCO2
  -6.4 | ? | · | 10.6 | -0.3 | -2.1
- CC(c1ccccc1)N(C)C(=O)CSc1nnc(C2CC2)n1C1CC1 (stereo not drawn)
  -15.4 | 8.5 | 0.7% | 3.9 | 1.5 | -3.0
- COc1ccc(-c2nc(SCc3ccccc3)n(S(C)(=O)=O)n2)cc1
  -14.1 | -1.2 | · | 5.0 | -0.2 | -0.3
- N#Cc1c(N)nc(-c2ccccc2)nc1-c1ccccc1
  0.8 | 5.3 | · | 13.7 | 1.7 | -0.3
- COC(=O)[C@@H](Cc1c[nH]c2ccccc12)NCc1cccc(B(O)O)c1
  -2.8 | -0.2 | 2.4% | -0.5 | 3.5 | 0.8
- COc1ccc(/C=N/NC(=O)c2cc(-c3cccc(C)c3)nc3ccccc23)cc1O
  15.7 | -13.8 | 3.9% | -7.4 | 1.5 | 2.8
- COc1ccc(OC)c(C2=CC(=O)C[C@H](c3ccc4c(c3)OCO4)C2)c1
  20.3 | -16.9 | -0.2% | -9.9 | 0.1 | -10.1

Three compounds already listed, ordered by length of the SMILES, falling.
Screens in order – TRPML1 blocker | Six1-Eya2 inh | PINK1 modulator | CtBP-E1A blk | TRPML1 agonist | D2 agonist
- COCCN(Cc1nc2ccccc2c(=O)[nH]1)C(=O)COc1ccccc1-c1ccccc1
  11.5 | -2.6 | 2.7% | -2.9 | 0.4 | -1.5
- N#Cc1c(N)nc(-c2ccccc2)nc1-c1ccccc1
  0.8 | 5.3 | · | 13.7 | 1.7 | -0.3
- CCc1cc2c(=O)[nH]c(Cc3ccccc3)nc2s1
  13.7 | 8.8 | -0.1% | 2.9 | 2.2 | 2.4

Going on with the list.
Screens in order – TRPML1 blocker | Six1-Eya2 inh | PINK1 modulator | CtBP-E1A blk | TRPML1 agonist | D2 agonist
- O=C(CN(C1CCCCC1)S(=O)(=O)c1ccc(Cl)cc1)NCCCO
  -7.4 | -3.1 | -2.7% | 1.2 | 0.9 | -1.2
- CCCc1[nH]c(=O)c(C#N)c2c1CCCC2
  -11.0 | 14.9 | 17.3%[38.3 µM] | 41.9 | 1.5 | -0.3
- C=CCn1c(SCC(=O)c2c(N)n(C3CC3)c(=O)[nH]c2=O)nnc1-c1ccccc1OC
  3.9 | 5.1 | -0.7% | -13.6 | 0.3 | -2.3
- Cn1c(=O)oc2cc(S(=O)(=O)N3CCN(C(=O)c4ccco4)CC3)ccc21
  -6.8 | -1.1 | 0.7% | 2.9 | -0.2 | 0.2
- Cc1ccc(C(=O)N2CCN(c3ccc(NC(=O)c4cc(C)cc(C)c4)cc3)CC2)cc1
  -3.7 | -2.7 | ? | -2.2 | 5.0 | 0.5
- COCCNC(=O)C1(C)CCN(Cc2ccc3ccccc3c2Br)C1 (stereo not drawn)
  · | 10.2 | 1.6% | -5.3 | -0.6 | -2.0
- Cc1cc(C)n(S(=O)(=O)c2ccc(C)c(C)c2)n1
  -11.0 | 1.0 | -0.3% | 17.4 | 0.2 | -3.7
- Cc1[nH]n(-c2ncc(-c3ccccc3)s2)c(=O)c1C(c1ccc(Cl)cc1)C(C#N)C#N (stereo not drawn)
  2.5 | -15.1 | 3.6% | 1.1 | -0.2 | -8.6
- C=CCc1cccc(C=Nc2cc(Br)ccc2O)c1O
  -3.0 | -0.2 | -1.0% | -1.9 | 0.2 | ?
- CCOC(=O)c1c(C)[nH]c(C)c1C(=O)CSc1nnnn1-c1ccccc1
  -5.0 | -2.8 | 0.1% | -10.9 | -1.2 | -3.4
- COCCCNC(=O)Cn1c(=O)n(CC(=O)N2CCCCC2)c(=O)c2sccc21
  -5.1 | 5.6 | 0.1% | · | 0.7 | -0.6
- Cc1cccc(C)c1OCc1n[nH]c(=S)n1-c1ccccc1
  -7.0 | -1.7 | 2.0% | 8.2 | 4.7 | 9.5
- CCCCN(CC)CCNC(=O)c1[nH]c(C)c(C(C)=O)c1C
  -26.8 | -0.5 | -1.1% | -0.7 | -0.4 | -0.7
- COc1ccc(C(=O)NCC(=O)OCC(=O)NC2CCCC2)cc1
  -9.7 | 3.4 | -1.3% | 2.0 | 0.4 | -2.7
- CCOC(=O)c1ccc(NC(=O)/C(C#N)=C/c2ccc(OC)cc2)cc1
  5.1 | · | 0.7% | · | 0.0 | ·

Screens in order – TRPML1 blocker | Six1-Eya2 inh | PINK1 modulator | CtBP-E1A blk | TRPML1 agonist | D2 agonist
- CCOc1ncccc1C(=O)N1CCN(S(=O)(=O)c2ccc(Br)cc2Cl)CC1
  18.6 | 7.5 | 0.8% | 4.0 | -0.3 | 0.5
- N#Cc1ccccc1NC(=O)COC(=O)c1ccc2c(c1)OCO2
  9.7 | -2.0 | 7.2% | · | -0.8 | 6.0
- O=c1c(N2CCN(c3ccc(F)cc3)CC2)csc2ccc(F)cc12
  12.2 | · | -1.1% | · | -0.2 | ·
- COc1cccc(N2CCN(C(=O)Cn3c(-c4cccs4)cc4ccccc43)CC2)c1
  -4.7 | · | -1.2% | · | 2.7 | ·
- COc1ccc(S(=O)(=O)NC(CC(=O)NC2CCCC2)c2ccco2)cc1 (stereo not drawn)
  -0.3 | 6.3 | 1.7% | 2.1 | -0.7 | -2.7
- Cc1cccc(N/N=C(\C#N)S(=O)(=O)C(C)(C)C)c1
  5.1 | 3.2 | 3.1% | · | 0.0 | -3.3
- O=[N+]([O-])c1ccc(S(=O)(=O)Nc2nnc(C(F)(F)F)s2)cc1
  35.2 | -4.7 | 2.7% | 9.7 | -0.5 | -12.4
- CCOC1=C2[C@@H](CN(S(=O)(=O)c3ccc(C)cc3)[C@H]2c2ccccc2Cl)[C@H]2C(=O)NC(=O)[C@H]2C1
  · | 3.7 | -0.7% | 5.4 | -0.4 | -1.9
- CCOc1ccc(NC(=O)C2Cc3ccccc3CN2S(=O)(=O)CC)cc1 (stereo not drawn)
  -12.4 | 1.9 | -1.0% | · | 0.0 | -1.8
- O=[N+]([O-])c1cccc(/C=C/c2nc(C=Nc3ccc4ccccc4c3)c(O)o2)c1
  -15.0 | 6.5 | 18.3%[38.3 µM] | -0.5 | 3.3 | -1.9
- Cc1ccc([N+](=O)[O-])cc1NC(=O)C[n+]1ccccc1
  6.5 | 10.1 | 2.1% | -1.7 | -0.1 | -7.9
- N#Cc1c(-c2ccccc2)cc(-c2ccccc2)nc1SCCC(=O)O
  -7.8 | -7.0 | 2.5% | 1.2 | 2.1 | -4.3
- COc1ccc(Nc2nnc(-c3ccccc3)c3ccccc23)cc1C(=O)N1CCCCC1
  6.3 | -8.6 | -1.7% | -18.9 | 0.7 | -2.2
- Cc1cc(C(=O)NC(C)CCc2ccccc2)ccc1[N+](=O)[O-] (stereo not drawn)
  1.8 | -1.2 | 2.7% | 1.3 | -0.8 | 4.3
- CN(C(=O)COC(=O)c1cc2c(s1)CCCCC2)C1CCS(=O)(=O)C1 (stereo not drawn)
  12.7 | 2.8 | -1.2% | -3.9 | 0.0 | -2.3

Screens in order – TRPML1 blocker | Six1-Eya2 inh | PINK1 modulator | CtBP-E1A blk | TRPML1 agonist | D2 agonist
- CC(=O)C(Cc1ccccc1)NC(=O)CN(C)Cc1ccccc1Cl (stereo not drawn)
  4.2 | -2.6 | -0.2% | 6.5 | 0.3 | -2.8
- O=C(NCCc1ccc(Cl)cc1)C1CCC(=O)N1Cc1ccc(F)cc1 (stereo not drawn)
  -8.1 | 9.7 | 3.3% | 1.2 | -0.4 | -1.8
- CCN(CC1CCCO1)C(=O)c1cc(COc2ccc(OC)cc2Cl)on1 (stereo not drawn)
  2.5 | 2.8 | 0.1% | 9.9 | -0.2 | -0.6
- Cc1ccc(-n2nnnc2CS(=O)(=O)c2ccccc2)c(C)c1
  9.3 | 0.9 | 0.3% | 2.1 | -0.7 | -5.1
- Cc1onc(-c2c(F)cccc2Cl)c1C(=O)OCC(=O)NC(N)=O
  3.4 | 6.9 | -0.1% | 0.9 | 0.2 | 11.2
- OCCn1c(CSc2nc3ccccc3n2CCO)nc2ccccc21
  9.9 | 4.0 | -4.6%[38.3 µM] | 10.6 | 0.1 | 0.2
- O=C(NCCc1ccc(F)cc1)NC12CC3CC(CC(C3)C1)C2
  4.0 | 0.9 | ? | 6.7 | 0.0 | -2.8
- S=c1[nH]nc(CN2CCCC2)n1Cc1ccccc1
  -0.7 | 2.9 | -0.4% | -8.2 | 1.5 | 0.6
- Cc1ccc(S(=O)(=O)c2nnn3c2nc(NCc2cccs2)c2sccc23)cc1C
  -3.7 | · | 1.3% | · | 1.2 | ·
- Cc1ccc2c(c1)C(c1ccccc1)N(C(=O)c1ccccc1)CC(=O)N2 (stereo not drawn)
  18.4 | 3.1 | 1.1% | 5.8 | 0.5 | -2.5
- Cc1ccc(NC(=O)c2ccc(Cn3cc(Br)cn3)o2)cc1
  -5.0 | -0.9 | -1.8% | -7.3 | 6.0 | -0.1
- CCc1ccccc1NC(=O)CSc1nc2c(c(=O)[nH]1)CN(Cc1ccccc1OC)CC2
  -5.7 | · | -0.5% | · | -1.3 | ·
- CCc1c(C)sc(NC(=S)Nc2nc(C)cc(C)n2)c1C(=O)OC
  6.7 | -2.5 | 6.7% | -0.1 | -0.2 | 1.3
- Cc1noc(NS(=O)(=O)c2ccc(NC(=O)COc3ccc(Cl)cc3Cl)cc2)c1C
  24.3 | -19.4 | -0.4% | -5.1 | 3.8 | 1.1

High-throughput results from PubChem BioAssay.
